From PubChem
LASV entry inh: qHTS for Inhibitors of binding or entry into cells for Lassa Virus | 300,000 compounds, 1.2% hits | Potency, µM (doses to about 37.9 µM), for the others: at the top dose activity change, negative = inhibition, actives largely listed as inhibitors | AID 540256, 2011 | Lassa virus pseudotype entry inhibition, cell reporter; control for the full effect not named in the record; active means well fitted inhibition curve with a large enough effect; inconclusive means small, poorly fitted or top-dose-only effect, or effect the other way; inactive means flat fitted curve, though single readings scatter; tested in HEK293 cells; note: % is set by controls: 0 for no effect and ±100 for the full control effect; nearly all actives have a fitted effect of over 50% in size; luciferase read-out
StopGo reporter: High Throughput Screening for Foot and Mouth Disease Virus Antivirals; human cells with a luciferase reporter of 2A StopGo recoding; control for the full effect not named in the record; AID 1159524, 2015; 410,000 compounds, 1.2% hits; Potency, µM (doses to about 57.9 µM), for the others: at the top dose signal change, negative = less light; active = well fitted falling curve with a large enough effect; inconclusive = small, poorly fitted or top-dose-only effect; inactive = no such curve, though single readings can be large or run the other way; tested in HEK293T cells; note: % is set by controls: 0 for no effect and ±100 for the full control effect; nearly all actives have a fitted effect of over 45% in size; luciferase light after 4 h
RE007 growth inh: qHTS Assay for Inhibitors of the HIV-1 protein Vpr; Potency, µM (highest dose often 92.2 µM), for inactives: top-dose activity change, negative = less growth; AID 651644, 2012; S. pombe RE007 Vpr strain, BacTiter-Glo ATP luminescence, 24 h; control for the full effect not named in the record; 360,000 compounds, 0.21% hits; active = well fitted falling curve with a large enough effect; inconclusive = small, poorly fitted or top-dose-only effect; inactive = no such curve, though single readings can be large or run the other way;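 note: % is set by controls: 0 for no effect and ±100 for the full control effect; nearly all actives have a fitted effect of over 50% in size; the assay follows cell death caused by Vpr and the record does not say whether a fall means rescue or toxicity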
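Fission yeast strain RE007, carrying one chromosomally integrated HIV-1 vpr copy, was seeded at OD 0.01 in PMG+AL medium with 23 nL pinned compound. After 24 h at 30 °C and 99% humidity, viability was read by BacTiter-Glo luminescence.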
SARS PLP yeast: qHTS of Yeast-based Assay for SARS-CoV PLP; S. cerevisiae expressing SARS-CoV PLpro, growth rescue; control for the full effect not named in the record; Potency, µM (doses to about 32.9 µM), for the others: top-dose activity, positive = growth rescue; 330,000 compounds, 0.19% hits; AID 485353, 2010; note: 0% is about no effect; nearly all actives have a fitted effect of over 55% in size; growth read by luminescence after 48 h
Marburg entry inh: qHTS for inhibitors of binding or entry into cells for Marburg Virus; Marburg virus pseudotyped entry inhibition, cell reporter; control for the full effect not named in the record; about a third of the inactives were read at about 46 µM; 300,000 compounds, 1.8% hits; Potency, µM (top dose mostly 37.8 µM), for inactives: at the top dose activity change, negative = inhibition, actives largely listed as inhibitors; AID 540276, 2011; active = well fitted inhibition curve with a large enough effect; inconclusive = small, poorly fitted or top-dose-only effect, or effect the other way; inactive = flat fitted curve, though single readings scatter; tested in HEK293 cells; about a fifth of its hits are not listed in these tables; note: % is set by controls: 0 for no effect and ±100 for the full control effect; luciferase read-out
Cruzain noTriton: qHTS Assay for Promiscuous and Specific Inhibitors of Cruzain (without detergent) | Cruzipain (Trypanosoma cruzi), P25779 | 200,000 compounds, 2.3% hits | purified cruzain, Z-FR-AMC fluorescence, no detergent | AID 1476, 2009 | Potency, µM, for inactives: max response, negative = inhibition, most hits filed as inhibitors; active = well fitted curve in the direction sought with a large enough effect; inconclusive = small, poorly fitted or top-dose-only effect, or another doubt; inactive = no such curve, though single readings can be large; an effect the other way counts as inactive or inconclusive;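 note: plate controls were enzyme without inhibitor for no effect and buffer without enzyme for full effect; nearly all actives have a fitted effect of over 40% in size; top concentration of the series not given in the record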
Target sequence (P25779 123-467 limits assumed): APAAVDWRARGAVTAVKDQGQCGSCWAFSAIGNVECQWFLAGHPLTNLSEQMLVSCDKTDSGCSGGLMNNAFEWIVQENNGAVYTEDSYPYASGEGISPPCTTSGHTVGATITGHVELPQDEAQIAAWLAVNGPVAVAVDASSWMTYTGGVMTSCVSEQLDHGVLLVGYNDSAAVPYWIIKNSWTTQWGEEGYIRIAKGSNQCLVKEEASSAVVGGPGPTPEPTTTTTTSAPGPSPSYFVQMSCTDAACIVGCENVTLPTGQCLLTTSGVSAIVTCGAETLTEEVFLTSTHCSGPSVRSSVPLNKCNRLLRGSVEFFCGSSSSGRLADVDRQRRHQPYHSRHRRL
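Purified cruzain at 1.5 nM, pre-incubated 15 min with compound at room temperature in 100 mM sodium acetate pH 5.5, 5 mM DTT, 0.00005% Triton X-100. Reaction started with 2 uM Z-FR-AMC; AMC fluorescence increase over 60 s gives rate.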
NS1 inh: qHTS Assay for Inhibitors of Influenza NS1 Protein Function; Potency, µM (series often up to 46.1 µM), inactives show at the highest dose activity, positive = more growth; S. cerevisiae slowed by influenza A NS1, growth recovery by OD600; 270,000 compounds, 0.4% hits; AID 2326, 2010; note: actives are rising curves; nearly all actives have a fitted effect of over 50% in size
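A cell-based growth assay was used: compounds that relieve NS1-induced slow growth of budding yeast raise OD600. Assay medium was yeast nitrogen base with ammonium sulphate and -URA supplement, pH 6.0, with 2% galactose.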
Cruzain inh Det: qHTS Assay for Promiscuous and Specific Inhibitors of Cruzain (with detergent) | Cruzipain (Trypanosoma cruzi), P25779 | purified cruzain, Z-FR-AMC fluorescence, 0.01% Triton | AID 1478, 2009 | 200,000 compounds, 0.43% hits | Potency, µM, for the others: max response, negative = inhibition, actives largely listed as inhibitors; active = well fitted curve in the direction sought with a large enough effect; inconclusive = small, poorly fitted or top-dose-only effect, or another doubt; inactive = no such curve, though single readings can be large; an effect the other way counts as inactive or inconclusive;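 note: plate controls were neutral wells for no effect and buffer without enzyme for full effect; nearly all actives have a fitted effect of over 40% in size; top concentration of the series not given in the record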
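Cruzain (1.5 nM) preincubated 15 min at RT with compound in 100 mM sodium acetate pH 5.5, 5 mM DTT, 0.01% Triton X-100. Reaction started with 2 uM Z-FR-AMC; AMC fluorescence (ex 360/em 450 nm) change over 60 s gave rate.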
Starred values were filed as active, the others as inactive; ? = inconclusive; . = not tested or not shown; & = joins results of further samples; [ ] = dose if it differs, or a comment. Unless noted, calls come from the whole dose curve; as a rule, active means well fitted rising curve with a large enough effect; inconclusive means small, poorly fitted or top-dose-only effect; inactive means no such curve, though single readings can be large or run the other way. Potency is the fitted concentration of half-maximal effect.

SMILES	LASV entry inh	StopGo reporter	RE007 growth inh	SARS PLP yeast	Marburg entry inh	Cruzain noTriton	NS1 inh	Cruzain inh Det
COc1ccc2[nH]c3c(c2c1)CCNC3C1CC=C(C)CC1 (stereo not drawn)	.	?	2%	2%	.	.	5%	.
CCOC(=O)c1ccc(N2C(=O)c3[nH]nc(-c4ccc(OCC)cc4)c3C2c2ccc(OC)cc2OC)cc1 (stereo not drawn)	?	-20%	.	.	?	-11%	.	2.9%
COc1ccc(CNC(=O)CCC(=O)N2CCSc3ccccc32)cc1	5%[46.1 µM]	-11%	.	.	.	-6%	.	-1.4%
NC(=O)c1nc(-c2ccccc2)c(-c2ccccc2)[nH]c1=O	8%	-21%	2%	.	21%	.	.	.
CCCCn1c(N)c(N(CCC(C)C)C(=O)CN2C(=O)C3CCCCC3C2=O)c(=O)[nH]c1=O (stereo not drawn)	?	6%	-15%	-5%	-7%	.	2%	.
COc1cc(/C=N/NS(=O)(=O)c2ccc(C(C)(C)C)cc2)cc([N+](=O)[O-])c1O	11%	0%	2%	3%	7%[14.2 µM]	.	10%	.
CCOc1ccc(Nc2nc(Nc3ccc(OCC)cc3)nc(N3CCOCC3)n2)cc1	2%[46.1 µM]	-19%	.	.	?	-1%	.	-2.4%
CCOC(=O)c1c(NC2=NS(=O)(=O)c3ccccc32)sc2c1CCC(C)C2 (stereo not drawn)	12%	-14%	-11%	5%	-34%	-20%	16%	-3.8%
CCn1c(C(C)NC(=O)c2ccc(Cl)cc2)n[nH]c1=S (stereo not drawn)	.	-12%	-8%	0%	20%[46.1 µM]	.	.	.
O=C(C1=C[C@@H](C2CCCCC2)C[C@@H](OCc2ccc(CO)cc2)O1)N1CCN(Cc2ccc3c(c2)OCO3)CC1	.	-21%	25%	-4%	.	.	-39%	.
CCOc1cccc(/C=N/N2C(C)CCCC2C)c1O (stereo not drawn)	.	46%[activator]	-7%	0%	.	.	1%	.
CCOCCCNC(=S)N1CCC(C(=O)c2ccc(C)cc2)CC1	-5%	-15%	4%	5%	0%	.	19%	.
CCOc1ccc(N(C)S(=O)(=O)c2ccc3[nH]cc(C(=O)NCCOC)c(=O)c3c2)cc1	-19%	?	4%	0%	7%	.	.	.
CC(C)CSC1=NSC2=NC(=O)/C(=C\c3cccs3)C(=N)N12	?	6%	-5%	-37%	?	2%	-12%	-3.3%
Cc1ccc(C(=O)N2CCC3(CC2)Oc2ccc(Cl)cc2C(=O)C32CC(c3ccc(Cl)cc3)=NO2)s1 (stereo not drawn)	.	-1%	2%	1%	.	.	4%	.
Cc1ccc(O)c(NC(=O)C2CCCCC2)c1	24%[46.1 µM]	-8%	-12%	-2%	19%[46.1 µM]	.	-3%	.
O=C(Oc1c(Br)cc([N+](=O)[O-])cc1Br)c1cccnc1	13%	?	12%	-48%	-29%[46.1 µM]	0%	-24%	-8.9%
O=C1CC(c2ccco2)CC(O)=C1C=Nc1cc(Cl)cc(Cl)c1 (stereo not drawn)	-14%	?	-22%	-11%	-18%	-12%	-4%	-9.9%
CCn1c(SCC(=O)Nc2sc3c(c2C#N)CCCC3)nnc1-c1ccco1	-20%	-23%	-15%	0%	13%[46.1 µM]	16%	5%	-0.4%
Cc1ccc([N+](=O)[O-])cc1S(=O)(=O)Nc1cccc(-c2ccc(N3CCOCC3)nn2)c1	2%	25%	-27%	0%	8%[46.1 µM]	.	.	.
O=S(=O)(Nc1ccc(-c2ccc(N3CCCC3)nn2)cc1)c1cccc(C(F)(F)F)c1	4%[46.1 µM]	17%	.	.	.	-13%	.	0.9%
COc1cc(OC)c(OC)cc1CNCCc1cccc(F)c1	.	-20%	-14%	0%	.	.	0%	.
COc1ccc(-c2nnc(SCc3c(C)noc3C)n2N)cc1OC	-23%[14.3 µM]	-2%	-18%	0%	5%	-4%	-6%	2.0%
CC(C)C1CC(c2ccccc2)(C(CN)CO)CCO1 (stereo not drawn)	-1%	-16%	1%	2%	-26%[46.1 µM]	.	.	.
CCc1cc2cccc(C)c2nc1SCC(=O)Nc1cc(C)on1	?	9%	1%	-1%	?	.	-1%	.
Cc1cc(C)cc(C(=O)NCC(=O)OCC(=O)N2c3ccccc3NC(=O)C2(C)C)c1	8%[46.1 µM]	-9%	12%	?	11%[46.1 µM]	-3%	-10%	-6.8%
Cc1nn(-c2cc(N3CCCCCC3)ccc2[N+](=O)[O-])c(=O)c2ccccc12	?	0%	7%	1%	-27%	4%	10%	-5.9%
COc1ccc(-n2cc(-c3ccccc3)[n+]3c2CCCCC3)cc1	?	?	4%	2%	?	.	.	.
COc1cccc(-c2nc(SCC(=O)NCc3ccco3)c3c(=O)n(C)c(=O)n(C)c3n2)c1	-6%[46.1 µM]	0%	.	.	.	-2%	.	3.9%
CCc1ccc(-n2c(=O)c3c(C)c(C(=O)N(C)C)sc3n(CC(=O)NCc3ccco3)c2=O)cc1	-1%	-14%	-11%	2%	0%	-11%	16%	4.0%
O=C(NCc1ccc2c(c1)OCO2)c1ccco1	9%[46.1 µM]	21%	1%	0%	1%[46.1 µM]	.	.	.
COc1ccc(NC(=O)CN2CCN(C(=O)N3CCOCC3)CC2)cc1	-3%	-4%	3%	-3%	-1%[46.1 µM]	.	4%	.
CCS(=O)(=O)c1ccc(O)c(NC(=O)Nc2cccc3ccccc23)c1	11%[46.1 µM]	12%	10%	2%	0%[46.1 µM]	.	-1%	.
CSc1ncccc1C(=O)OCC(=O)N1CC2(C)CC1CC(C)(C)C2 (stereo not drawn)	-11%	-21%	4%	5%	?	.	.	.
CCOc1ccc(NC(=O)C/C(C)=N/NC(=O)COc2ccc(Br)cc2C)cc1	3%	-3%	-2%	-2%	8%	.	7%	.
COc1ccccc1NC(=O)c1cc2c(-c3ccccc3)nn(-c3ccccc3)c2s1	-20%[46.1 µM]	-22%	.	.	16%[46.1 µM]	?	.	2.8%
O=C(/C=C/c1ccc([N+](=O)[O-])cc1)NCc1ccco1	?	1%	-29%	-4%	?	-9%	-6%	-4.4%
CN(CCO)c1nc(N)c(C#N)c(CC#N)c1C#N	-3%	-17%	5%	1%	14%[46.1 µM]	.	6%	.
Cn1cnnc1SCC(=O)Nc1ccccc1F	6%[46.1 µM]	-9%	0%	0%	0%[46.1 µM]	.	-1%	.
Cc1cc(C(F)F)n2nc(C(=O)Nc3ccc(S(=O)(=O)N4CCCCCC4)cc3)nc2n1	-5%	13%	-5%	.	-14%&-14%[46.1 µM]	.	3%	.
CN(Cc1c(C(=O)N/N=C/c2ccccc2)nnn1-c1nonc1N)c1ccccc1	.	?	6%	2%	.	.	-1%	.
COc1ccc(Cl)cc1N(C(C)=O)c1nc(C)cc(C)c1C#N	.	10%	0%	3%	.	.	25%	.
CC(C)CCn1c(=O)c(C(=O)NCc2ccco2)c(O)c2ccccc21	0%	-12%	-22%	1%	5%[46.1 µM]	.	1%	.
O=c1[nH]nnc2c1sc1nc(N3CCOCC3)c3c(c12)CCCC3	18%	-19%	0%	.	28%[46.1 µM]	.	.	.
O=C1CCCN2N=C(SCC(=O)Nc3ccc(Br)cc3)SC2=N1	.	0%	2%	10%	.	.	-1%	.
CCCCNC(=O)c1cc2c(=O)n3cccc(C)c3nc2s1	?	14%&10%	19%	1%	?	10%	0%	0.0%
CCCCc1nc2ccccc2[nH]1	5%	-1%	-5%	-2%	21%[46.1 µM]	.	-6%	.
Cc1cc(C)nc(NN2C(=O)/C(=C/c3ccccc3)SC2=S)n1	5%	-13%	-1%	4%	-2%	-29%	4%	-6.8%
COC(=O)/C=C/c1ccc(-n2ccnc2)cc1	2%	37%[activator]	-2%	0%	-5%[46.1 µM]	.	.	.
O=C(NCc1ccccc1Cl)c1ccc2c(c1)NC(=O)C(CS(=O)(=O)Cc1ccc(F)cc1Cl)N2 (stereo not drawn)	1%[46.1 µM]	-8%	.	.	.	?	.	-2.7%
O=C(Nc1cccnc1)c1cccnc1Cl	6%	8%	15%	-21%	1%	4%	-8%	2.2%
CCCCn1nnnc1SCC(=O)c1cc(Cl)ccc1OC	-17%	9%	-18%	-1%	17%	-4%	-14%	-7.3%
O=C(N/N=C/c1ccc(O)cc1)Nc1cccc2nsnc12	?	-2%	-12%	-2%	?	.	0%	.
COc1ccc(-n2c(-c3ccccc3Br)nc3ccccc3c2=O)cc1	-20%[46.1 µM]	-5%	5%	-1%	-3%[46.1 µM]	.	-3%	.
Cc1ccc2nc3n(c(=O)c2c1)CCCCC3	9%	41%[activator]	-25%	?	17%	-12%	6%	-3.4%
CSc1ccccc1NC(=O)COc1nsnc1N1CCOCC1	-16%[46.1 µM]	-15%	6%	0%	-2%[46.1 µM]	.	-8%	.
NC(=S)N=Nc1c(O)n(Cc2ccc(F)cc2)c2ccccc12	.	?	1%	-13%	.	?	4%	13µM*
Cc1ccc(-n2nc3ccc(NC(=O)/C=C/c4ccco4)cc3n2)cc1	-6%	30%[activator]	-4%	-6%	-16%	16µM*	10%	-7.2%
O=C(CCc1ccccc1)c1nnc(-c2ccccc2)o1	?	3%	1%	-1%	?	.	-2%	.
Cc1cc2oc(=O)cc(-c3ccccc3)c2c(C)c1-c1ccc(C(F)(F)F)cc1	.	?	7%	-6%	.	?	.	-8.2%
O=C(O)C(Cc1c[nH]c2ccccc12)N1C(=O)c2ccccc2C1=O (stereo not drawn)	.	3%	-5%	-1%&4%	.	.	-3%&1%	.
Cc1cc(C)n2nnnc2n1	1%	9%	14%	0%	-1%[46.1 µM]	.	6%	.
CCOc1ccc(CCNC(=O)CS(=O)(=O)Cc2nc(-c3ccc(OC)cc3)oc2C)cc1	-25%&-2%[46.1 µM]	-14%&-16%	16%	7%	-5%&-7%[46.1 µM]	-17%	27%	0.1%
